Compound activity: PubChem BioAssay, several laboratories
Beta2AR agonist – human beta-2 adrenergic receptor agonism by FAP. response, % (no concentration beside the values). P07550. 0.43% of 340,000 active. Am2.2-beta2AR cells, FAP receptor internalization, flow cytometry; reference of the scale not given here;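 active means response above a set limit, near 3 SD of response in nonfluorescent compounds, cut at about 42% in these data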;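 further: stock transfer was 100 nL into about 11 µL; a reference agonist was the positive control; negative values mostly stem from fluorescent compounds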
Target sequence (P07550 whole entry, looked up): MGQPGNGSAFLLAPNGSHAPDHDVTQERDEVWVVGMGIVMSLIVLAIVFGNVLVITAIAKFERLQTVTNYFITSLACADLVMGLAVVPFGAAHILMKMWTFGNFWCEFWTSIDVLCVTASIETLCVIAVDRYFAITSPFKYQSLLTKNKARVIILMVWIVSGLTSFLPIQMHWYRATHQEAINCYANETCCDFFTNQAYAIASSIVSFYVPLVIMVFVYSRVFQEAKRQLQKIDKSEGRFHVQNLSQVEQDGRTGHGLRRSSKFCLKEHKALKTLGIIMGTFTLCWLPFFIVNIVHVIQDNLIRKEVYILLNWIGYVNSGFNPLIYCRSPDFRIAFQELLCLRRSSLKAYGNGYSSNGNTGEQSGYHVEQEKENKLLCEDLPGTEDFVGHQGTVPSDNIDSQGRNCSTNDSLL
LANA-H2A inh – blocks KSHV LANA binding to histone H2A/H2B | cell-free LANA-H2A/H2B peptide, fluorescence polarization | inhibition, % (no concentration beside the values) | 0.6% of 320,000 active | AID 2629; in the data active means inhibition mostly above about 10%, no sharp cut-off; inactive means mostly below about 6.7%;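 further: stock transfer was 7.5 nL into about 10 µL; 0% = median of vehicle wells and 100% = median of positive control wells; one replicate is shown; the record names a cut of 25% in any replicate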
A1 inh – inhibitors of the anti-apoptotic protein A1, read as caspase activation; 0.066% of 330,000 active; MEF A1-2A-BIM cells, Caspase-Glo 3/7 luminescence, 3 h; percent of clofoctol response, vehicle zero; caspase activation, % (test concentration not listed);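 active means over half of replicate activation scores above 10%, or exactly half above 10 with the replicate mean above 10; inconclusive means replicate mean below 10 yet half the replicates above 10; inactive means over half of replicates below 10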;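 further: wells of about 30 µL received 50 nL stock; many hits fall short of the cut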
UCH37 inh – inhibitors of human deubiquitinating enzyme UCH37 | purified proteasome/UCH37, Ub-AMC cleavage fluorescence | AID 588478 | Q9Y5K5 | inhibition, % (no concentration beside the values) | 0.33% of 330,000 active;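 active means mean of two replicates above 20%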;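 further: 0% = compound-free wells with enzyme and 100% = wells lacking proteasome; stock transfer was 100 nL into about 20 µL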
Target sequence (Q9Y5K5 whole entry, looked up): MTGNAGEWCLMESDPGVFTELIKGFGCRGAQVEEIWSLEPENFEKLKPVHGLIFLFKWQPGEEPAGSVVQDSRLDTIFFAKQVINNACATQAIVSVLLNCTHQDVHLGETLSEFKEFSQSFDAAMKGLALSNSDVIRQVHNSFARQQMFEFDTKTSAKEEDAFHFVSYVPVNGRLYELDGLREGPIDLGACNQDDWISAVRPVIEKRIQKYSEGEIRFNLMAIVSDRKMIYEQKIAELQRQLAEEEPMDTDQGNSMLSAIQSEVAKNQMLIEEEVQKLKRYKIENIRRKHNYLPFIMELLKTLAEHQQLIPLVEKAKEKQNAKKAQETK
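Material: Human UCH37 enzyme supplied as purified proteasome complex | Schedule: 30 min preincubation with enzyme, 25 min cleavage at room temperature | Detection: AMC fluorescence 355/460 nm | Measure: % inhibition of Ub-AMC cleavage fluorescence | Controls: Wells without proteasome as full block, compound-free enzyme plus substrate as uninhibited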
HNF4A DNA FP – change in binding of human HNF4 alpha to DNA; HNF4a-FITC DNA binding, fluorescence polarization, 1 h; activity change, % at 10 µM; 0.3% of 360,000 active; AID 1224865; in the data active means activity change above about 30%, passing the limit was not always enough;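 further: controls were the assay level and a saturating level of protein; the project sought stronger binding though the title names inhibitors; some compounds called inactive have numbers as strong as hits; positive values seem to mean higher polarization but the record does not say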
Vif TR-FRET – HIV-1 Vif–A3G interaction blockers – biochemical, TR-FRET, GST-Vif 1-94, biotin-A3G peptide, dose response retest, primary screen (AID 1117319). TR-FRET GST-Vif / biotin-A3G peptide binding; higher % means a stronger effect; test concentration not given here; strong numbers were not always called active. inhibition, %, or IC50 in µM where a hit was titrated. 0.57% of 260,000 active;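 active means above the screen mean plus three standard deviations and confirmed in dose response; inconclusive means results disagree or hit not tested in dose response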;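 further: Vif residues 1-94 fused to GST binding biotinylated APOBEC3G peptide 110-148; 0% = full assay without inhibitor and 100% = GST in place of GST-Vif; retest series ran down from 100 µM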
E coli growth – blocks Escherichia coli growth | OD600, 23 h; hits give low values | OD600 absorbance (concentration not given with the values) | 0.21% of 330,000 active;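 active means OD600 absorbance below the run mean of sample wells minus 3.6 SD, in any replicate, cut at about 0.56 in these data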;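 further: stock transfer was 300 nL into about 60 µL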
An asterisk follows results filed as active; ? = inconclusive; · = no result given.

The line under a structure holds: Beta2AR agonist	A1 inh	E coli growth	UCH37 inh	LANA-H2A inh	HNF4A DNA FP	Vif TR-FRET
- COc1cc(C=O)ccc1OCC(=O)Nc1ccc2c(c1)OCO2
  17	0.3	0.7	1.6	2.9	-4.0	6%
- Cc1c(Cl)cccc1NC(=O)CCCCCN1C(=O)CCC1=O
  -8	-0.9	0.71	-0.1	2.6	1.5	-1%
- O=C(c1cccc(S(=O)(=O)Nc2ccccc2Cl)c1)N1CCN(C(=O)c2ccco2)CC1
  -8	0.6	0.7	2.2	-0.7	1.0	0%
- O=C(c1ccncc1)N1CCN(S(=O)(=O)c2cccc(Cl)c2)CC1
  -9	0.9	0.66	-0.9	0.0	-2.8	3%
- O=C(COC(=O)CNC(=O)c1ccccc1)Nc1ccc(S(=O)(=O)N2CCCC2)cc1
  3	-0.5	0.67	2.9	0.3	-0.5	·
- N#CC12COC3(CCCCC3C1(C#N)C#N)OC2=N (stereo not drawn)
  1	0.2	0.69	-9.8	6.7	-3.6	29%
- COc1cccc(Cl)c1NC(=O)N1CCN(c2ccnc3cc(Cl)ccc23)CC1
  -10	1.3	0.64	4.0	40*	-2.1	?
- CC(=O)Nc1cccc(OCC(=O)Nc2ccccc2)c1
  5	-6.5	0.69	4.3	3.4	0.2	15%
- CCS(=O)(=O)N1CCN(c2ccc(C(=O)NC3C4CC5CC(C4)CC3C5)cc2[N+](=O)[O-])CC1 (stereo not drawn)
  -8	2.2	0.76	5.7	6.3	1.5	·
- CC1CC(C)CN(CCCNC(=O)Cc2c(C(=O)O)[nH]c3ccccc23)C1 (stereo not drawn)
  -3	-0.2	0.72	3.5	-11	-0.1	-2%
- COc1ccc(S(=O)(=O)N2CCN(CC(=O)Nc3ccccc3Cl)CC2)cc1
  -1	0.8	0.75	2.5	-3.9	-2.4	·
- COC(c1ccccc1)c1nnc(CCC(=O)NCCc2ccc(Cl)cc2)o1 (stereo not drawn)
  8	-4.7	0.69	0.8	-5.4	-1.3	·
- Cc1ccc(S(=O)(=O)N2CCOCC2)cc1C(=O)N1CCN(c2ncccn2)CC1
  -3	·	0.63	-3.4	·	-0.1	5%
- COc1cccc(/C=N/NC(=O)C(=O)N2CCCC2)c1O
  5	-0.6	·	·	0.4	-3.9	-8%
- Cc1cccc(NC(=O)c2ccc3c(c2)OCCO3)c1
  2	·	0.67	0.7	·	-0.3	·
- CNc1nc(N)c([N+](=O)[O-])c(NCCO)n1
  9	0.6	·	·	-0.5	3.0	0%
- CCCc1cc(C(=O)N2CCN(c3ccc(C(F)(F)F)cn3)CC2)sc1C
  0	-0.1	·	·	3.9	-1.6	·
- CN(C)c1ccc(C#Cc2ccc3cc(CCCO)oc(=O)c3c2)cc1
  7	1.0	0.76	2.5	3.1	2.4	·
- C/C(CC(=O)Nc1ccc(N(C)C)cc1)=N\NC(=O)c1ccc([N+](=O)[O-])cc1Cl
  -7	1.0	·	·	7.0	5.7	?
- Cc1c(Cl)c([N+](=O)[O-])nn1CC(=O)Nc1c(C)n(C)n(-c2ccccc2)c1=O
  -8	0.7	0.81	2.7	1.5	3.6	2%
- COC(=O)C1(C)NC(c2ccco2)C2C(=O)N(c3ccc(C)cc3)C(=O)C21 (stereo not drawn)
  3	0.4	0.7	-0.3	1.8	-1.6	4%
- Cc1cc(S(=O)(=O)N2CCN(c3ncccn3)CC2)ccc1-n1cnnn1
  -1	0.0	0.74	-0.6	-4.3	0.7	17%
- CC(C(=O)NCc1ccccc1)N1CCN(c2ccc(F)cc2)CC1 (stereo not drawn)
  -8	-1.2	0.68	4.1	2.3	-1.1	-4%
- O=C(O)CCN1C(=O)C2C3c4ccccc4C(c4ccccc43)[C@@H]2C1=O (stereo partly drawn)
  0	0.2	0.67	5.2	0.5	1.6	8%
- CNc1nc(Nc2ccccc2)nc(OCC(F)(F)F)n1
  -2	-0.2	0.71	3.6	-9.1	-1.8	·
- CCCCc1cc(=O)oc2cc(C)cc(OC(C)C(=O)O)c12 (stereo not drawn)
  -6	0.2	0.71	-303	-0.1	-2.1	-2%
- Cc1nc2ccccc2nc(C)c1=NOCc1ccccc1Cl
  -4	0.2	·	·	-2.6	0.1	24%
- Cc1c(/C=C(\C#N)C(=O)NCc2ccccc2)cc(C#N)n1C
  -6	-0.6	0.67	-204	0.7	1.9	·
- Cc1ccccc1C(=O)N1CCC(C(=O)NC2CCCCC2)CC1
  4	0.2	0.69	1.8	0.1	1.5	·
- Cc1ccc(-c2nnnn2-c2ccc(C)cc2)cc1
  -4	0.4	0.64	0.2	9.5	0.8	20%

Compound profiles, from the list above. Order of screens: Beta2AR agonist	A1 inh	E coli growth	UCH37 inh	LANA-H2A inh	HNF4A DNA FP	Vif TR-FRET
Cc1c(Cl)c([N+](=O)[O-])nn1CC(=O)Nc1c(C)n(C)n(-c2ccccc2)c1=O is entered as -8	0.7	0.81	2.7	1.5	3.6	2%
COc1ccc(S(=O)(=O)N2CCN(CC(=O)Nc3ccccc3Cl)CC2)cc1 is entered as -1	0.8	0.75	2.5	-3.9	-2.4	·
CCCc1cc(C(=O)N2CCN(c3ccc(C(F)(F)F)cn3)CC2)sc1C is entered as 0	-0.1	·	·	3.9	-1.6	·
CC1CC(C)CN(CCCNC(=O)Cc2c(C(=O)O)[nH]c3ccccc23)C1 (stereo not drawn) is entered as -3	-0.2	0.72	3.5	-11	-0.1	-2%

(more compounds)
The line under a structure holds: Beta2AR agonist	A1 inh	E coli growth	UCH37 inh	LANA-H2A inh	HNF4A DNA FP	Vif TR-FRET
- CCn1ncc2c1C(=O)NC1c3ccccc3C(=O)N21 (stereo not drawn)
  -4	0.1	0.69	3.4	-3.5	-3.3	-3%
- COc1ccc(-c2csc(NC(=O)CCCc3cccs3)n2)cc1
  -4	0.6	0.7	3.0	-3.5	-0.7	·
- Cc1ccc(CN2CCC(n3nccc3NC(=O)c3ccccc3C)CC2)o1
  -7	-0.1	·	·	-2.9	3.4	·
- COC(=O)c1ccc(C(=O)OC)c(NC(=O)C2CC2)c1
  17	-0.5	0.69	-31	-4.4	3.9	-9%
- Cn1cccc1C(=O)OCc1ccc(C(C)(C)C)cc1
  3	-0.6	0.7	6.2	-0.4	-0.1	·
- CC(=O)Nc1ccc(NC(=O)CCCN2C(=O)c3ccccc3C2=O)cc1
  1	1.5	0.7	-0.4	4.9	-2.8	-4%
- O=C(NCCCN1CCCC1=O)NC12CC3CC(CC(C3)C1)C2
  -4	-0.1	0.69	5.0	-4.5	-1.3	6%
- Cc1cc(S(=O)(=O)NCC(c2ccc(F)cc2)N2CCN(C)CC2)ccc1F (stereo not drawn)
  7	-0.4	0.62	3.7	1.7	4.5	6%
- COc1ccc(-c2ocnc2C(=O)N2CCN(Cc3cccnc3)CC2)cc1
  -6	0.5	0.67	1.7	-4.0	-3.6	·
- Cc1cc(C)n(C(=O)c2cc([N+](=O)[O-])cc([N+](=O)[O-])c2)n1
  0	0.1	0.68	1.7	2.7	-0.5	-6%
- COc1ccccc1NC(=O)CN1CCN(C2c3ccccc3-c3ccccc32)CC1
  6	-0.1	0.77	2.7	11	5.7	5%
- CC1CN=C(N(Cc2ccccc2)C(=O)Nc2ccccc2)S1 (stereo not drawn)
  3	-0.5	0.7	1.8	1.4	-13	-1%
- CN1C(=O)C2(OCC(CO)([N+](=O)[O-])CO2)c2ccccc21 (stereo not drawn)
  -4	-0.2	0.66	4.2	-0.9	-2.5	0%
- COc1ccc(CNC(=O)CN2C(=O)NC(C)(c3cccc(Br)c3)C2=O)cc1 (stereo not drawn)
  -8	0.1	0.68	1.4	-0.2	0.4	-4%
- CCOC(=O)Cn1cc(/C=N/NC(=O)CC#N)c2ccccc21
  0	0.5	·	·	0.4	3.2	2%
- O=C(NCc1cccc(Br)c1)C1CC(c2cc(C(F)(F)F)cc(C(F)(F)F)c2)=NO1 (stereo not drawn)
  17	0.1	0.68	4.3	3.2	1.4	·
- O=C(/C=C/c1cccc(F)c1)Nc1ccc(S(=O)(=O)Nc2ncccn2)cc1
  16	0.9	0.69	4.6	3.2	8.5	-2%
- CCOC(=O)c1oc2ccccc2c1NC(=O)Cc1cccs1
  18	-0.2	0.68	-6.3	6.4	-0.3	19%
- Cc1c(C(=O)N(CCc2ccccc2)Cc2ccccc2)cccc1[N+](=O)[O-]
  -4	-0.2	0.7	0.8	5.2	5.0	·
- Cc1ccc(C(=O)Nc2cccc(C(O)c3ccccc3)c2)cc1 (stereo not drawn)
  -2	0.7	0.68	4.0	3.3	1.5	·
- CCOc1ccc(-c2nn3c(-c4ccc(F)cc4)nnc3s2)cc1
  34	1.5	0.67	-1.8	3.0	2.0	·
- COc1ccc(N(C(=O)CNC(=O)c2ccco2)C(C(=O)NC2CCCCC2)c2cccnc2)cc1 (stereo not drawn)
  -6	0.5	0.73	-1.1	-1.9	-0.2	·
- CC1/C(=N/O)C(CN(C)C)C2CC1C2(C)C (stereo not drawn)
  8	0.2	·	·	-0.2	1.5	-3%
- CCOC(=O)Cc1csc(NC(=O)Nc2cccc(Cl)c2)n1
  8	0.7	0.6	1.5	4.4	1.7	4%
- COC(=O)c1ccc(CN2CCc3ccccc32)cc1
  0	1.4	0.66	0.7	-5.0	-0.2	·
- O=S(=O)(c1ccc(NC2CCCc3ccccc32)nc1)N1CCOCC1 (stereo not drawn)
  17	-1.1	0.61	1.4	0.4	2.8	3%
- CC(=O)Oc1ccc(NC(=O)CCC2CCCCC2)c(C(=O)O)c1
  5	-0.4	0.74	-4.0	-0.9	0.2	-9%
- COc1ccc(NC(=O)c2sc(SC)nc2N)cc1
  -3	-7.0	0.66	10	-2.1	1.5	0%
- C=CCn1c(-c2csc(-c3ccc(OC)c(OC)c3)n2)n[nH]c1=S
  -2	-0.3	0.73	-3.9	0.7	-0.6	-7%
- CO/N=C(/C)CCS(=O)(=O)c1ccccc1
  4	-2.4	·	·	4.6	-1.3	-4%
- CCN1C(=O)CSc2ccc(C(=O)NCc3ccco3)cc21
  -5	0.1	0.72	1.9	1.4	2.1	14%
- O=C(COC(=O)/C=C/c1cccc(Cl)c1)NCc1cccs1
  -1	-1.2	0.67	-0.2	-0.9	1.5	·
- N#Cc1cccc(Nc2c3c(nc4ccccc24)CCCC3)c1
  -18	-0.4	0.63	-1.8	-4.1	2.6	-16%
- Cc1cccc(COc2ccc(/C(O)=C3\C(=O)C(=O)N(CCN(C)C)C3c3ccncc3)cc2)c1 (stereo not drawn)
  -7	0.0	0.74	13	2.9	2.2	-5%
- O=C(O)CCn1nnc2ccccc21
  -3	-0.4	0.69	-2.7	5.4	-0.1	23%
- CC(=O)Oc1ccc2oc(/C=C/N(C)C)c([N+](=O)[O-])c2c1
  6	0.8	0.71	22*	4.1	25	29%
- CCOc1ccccc1NC(=S)N1CCC(c2nc3ccccc3o2)CC1
  -5	1.4	0.72	2.1	0.4	-2.4	·
- CC(=O)C1=NN(c2ccccc2)C(c2cccs2)N1c1ccc(N(C)C)cc1 (stereo not drawn)
  3	-0.1	0.67	2.1	1.0	5.5	-5%
- CCOC(=O)Cc1c(C)c2c(C)[nH]nc2oc1=O
  2	0.3	0.74	-4.6	4.6	-1.2	-2%
- CCc1ccccc1NNC(=O)CCc1ccccc1
  -6	-0.2	0.69	3.1	-3.4	-2.2	67%
- CN1CCc2c(sc3c2C(=O)NC(/C=C\c2ccccc2)N3)C1 (stereo not drawn)
  -8	0.7	0.7	7.1	-9.4	8.9	·
- Cn1c(=O)c2c(nc(SCC(=O)NCC3CCCO3)n2Cc2ccc(F)cc2)n(C)c1=O (stereo not drawn)
  -10	1.0	0.68	1.2	-2.0	0.5	-5%
